Source: PubChem BioAssay
AmpC inh no det: inhibitors of E. coli AmpC beta-lactamase without detergent. AmpC nitrocefin hydrolysis, absorbance 480 nm, no detergent; potencies from a single point are estimates. Potency, µM (series often up to 28.7 µM), without a hit: at the highest dose activity change, negative = inhibition. hit rate 1.8% among 71,000; active = falling curve, for most hits resting on a single point; inconclusive = weak or doubtful change; inactive = flat or rising curve; note: % of control where 0% means no effect; about half of the hits show no inhibition at the top dose; a quarter of the inactives give rising signals
Target sequence (P00811 whole entry, looked up): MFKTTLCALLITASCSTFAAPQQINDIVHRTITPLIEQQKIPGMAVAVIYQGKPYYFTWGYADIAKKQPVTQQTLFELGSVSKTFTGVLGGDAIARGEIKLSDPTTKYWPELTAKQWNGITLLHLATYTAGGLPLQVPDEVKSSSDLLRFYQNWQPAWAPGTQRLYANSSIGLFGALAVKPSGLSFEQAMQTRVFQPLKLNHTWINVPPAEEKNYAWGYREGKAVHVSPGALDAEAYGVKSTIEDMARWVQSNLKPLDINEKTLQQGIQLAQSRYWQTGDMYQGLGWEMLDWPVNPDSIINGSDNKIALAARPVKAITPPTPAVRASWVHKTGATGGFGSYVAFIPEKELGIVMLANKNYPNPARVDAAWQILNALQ
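AmpC in 20 mM phosphate buffer pH 7.0 was preincubated 15 min at room temperature with compounds. Nitrocefin (800 uM stock) was then added and hydrolysis followed at 480 nm every 20 s for 4 min.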
Starred values were filed as active, the others as inactive; ? = inconclusive; [ ] = dose if it differs, or a comment. Potency is the fitted concentration of half-maximal effect.

The opening three records, ahead of the listing:
SMILES	AmpC inh no det
O=C(Nc1cccc(Cl)c1)N(CCN1CCOCC1)Cc1cccc(Cl)c1	35%
O=C(O)C1Sc2[nH]c(=O)sc2C2c3cc(Cl)ccc3OC(=O)C12 (stereo unspecified)	-14%
O=C(O)C1CCCCC1C(=O)Nc1ccccc1Nc1ccccc1 (stereo unspecified)	-6%

The list itself, from the start:
SMILES	AmpC inh no det
O=C(Nc1cccc(Cl)c1)N(CCN1CCOCC1)Cc1cccc(Cl)c1	35%
O=C(O)C1Sc2[nH]c(=O)sc2C2c3cc(Cl)ccc3OC(=O)C12 (stereo unspecified)	-14%
O=C(O)C1CCCCC1C(=O)Nc1ccccc1Nc1ccccc1 (stereo unspecified)	-6%
Cc1cccc(NC(=O)c2cc(-c3ccco3)nc3ccccc23)n1	1%
CC[N+](CC)(CCO)CCCN1C(=O)C2CC=C(Cl)CC2C1=O (stereo unspecified)	4%
COc1ccc(N(CC(=O)Nc2cccc(OC)c2)S(=O)(=O)c2c(C)nn(C)c2C)cc1	88%
O=C1CCCN1c1ccc(S(=O)(=O)N2CCN(c3ccccn3)CC2)cc1	8%
COC(=O)CCC(NC(=O)OCc1ccccc1)C(=O)NC(CC(C)C)C(=O)OC (stereo unspecified)	56%
C=CCN(C(=O)CCC(=O)Nc1cc(C)on1)C(C(=O)NC(C)(C)C)c1cccc(OC)c1OC (stereo unspecified)	57%
CCOC(=O)C1CCCCC12C(C#N)=C(N)Oc1n[nH]c(C)c12 (stereo unspecified)	8%
O=C(Cc1cccs1)NCc1ccc2c(c1)OCO2	2%
Cn1ncc2c(Nc3ccc4ccccc4c3)ncnc21	23%
COCc1nc2ccccc2n1Cc1ccc(Br)cc1	85%
Cc1cc(C(=O)CNCc2ccco2)c(C)n1-c1ccc(F)cc1	35%
CC(C)NC(=O)c1ccc(-c2ccccc2C(F)(F)F)o1	15%
CCOC(=O)C1=C(C)NC(=O)NC1c1ccc(OCC(=O)OC)c(OC)c1 (stereo unspecified)	-11%
COCCN1Cc2cccc(C(=O)Nc3cccc(OC)c3)c2C1=O	80%
CCN(CCCNC(=O)CCc1nc(-c2ccc(OC)cc2)no1)c1cccc(C)c1	119%
CCCOc1ccc(CC(=O)NCc2ccco2)cc1OC	10%
COc1cc2cc3c4c(cc(OC)c(OC)c4c2cc1OC)CCN3C	126%
COc1ccc(CN(C)CC(=O)c2c(N)n(Cc3ccccc3)c(=O)n(C)c2=O)c(OC)c1	25%
O=C(NCc1ccco1)C1Cc2ccccc2CN1S(=O)(=O)c1ccccc1F (stereo unspecified)	-3%
CC1=C(C)C(=O)N(c2ccc(C(=O)O)cc2)C1=O	0%
Cc1ccc(S(=O)(=O)N2CCCC(C(=O)NCC3COCCO3)C2)cc1 (stereo unspecified)	-2%

Entries shown so far with an NH in an aromatic ring (2):
SMILES	AmpC inh no det
O=C(O)C1Sc2[nH]c(=O)sc2C2c3cc(Cl)ccc3OC(=O)C12 (stereo unspecified)	-14%
CCOC(=O)C1CCCCC12C(C#N)=C(N)Oc1n[nH]c(C)c12 (stereo unspecified)	8%

(next part)
SMILES	AmpC inh no det
Cc1cc2oc(=O)cc(C)c2cc1NC(=O)CCC(=O)O	-6%
C=CCn1c(SCc2nc3ccccc3[nH]2)nnc1-c1ccccn1	12%
Cc1cccc2sc(NC(=O)CN(C)S(=O)(=O)c3ccc(Br)s3)nc12	5%
O=c1c(-c2ccccc2)nc2cnc(N3CCOCC3)nc2n1CCc1ccccc1	1%
COc1ccc(N2CCN(S(=O)(=O)c3cccc4cccnc34)CC2)cc1	16%
CCOc1ccc(-c2nnc(NC(=O)CCCOc3cccc(C)c3)o2)cc1	-10%
O=C1C/C(=C/NCc2ccccc2)C(=O)N1	-2%
C=CC[C@H](N)C(=O)O	10%
CCn1c(O)c(C=NCCc2c[nH]c3ccccc23)c(=O)[nH]c1=O	2%
CC(=O)N1c2ccccc2C(=O)C1N1CCCCC1 (stereo unspecified)	56%
Cc1nc(CSc2nnc(C)s2)cs1	6%
Cn1cnc(S(=O)(=O)NCc2cccs2)c1	-14%
CC(C)C1C(C#N)=C(N)Oc2n[nH]c(-c3cccs3)c21 (stereo unspecified)	-16%
COc1cccc(N2C(=O)C3C(C2=O)C2C=CC3C23CC3)c1 (stereo unspecified)	-7%
O=C(O)C1C2C=CC3(CN(Cc4ccco4)C(=O)C13)O2 (stereo unspecified)	-7%
COC(=O)CN1C(=O)C(O)(CC(=O)c2ccc(Br)cc2)c2ccccc21 (stereo unspecified)	51%
CCCCC(c1nnnn1CC1CCCO1)N1CCN(c2nc3ccccc3s2)CC1 (stereo unspecified)	118%
COc1ccccc1Oc1c(C)oc2cc(OC(=O)c3ccco3)ccc2c1=O	41%
CN1CCN(CCCn2cnc3c(=O)oc4ccccc4c32)CC1	-20%
CCOC(=O)C1=C(C)NC(C)=C(C(=O)OCC)C1C(=O)OCC(=O)N1CCCCC1CC (stereo unspecified)	106%
O=C(O)C1CCCCC1C(=O)N1CC=C(c2ccccc2)CC1 (stereo unspecified)	-14%
CNCCCc1[nH]nc(N)c1C#N	9%
C(=C/c1ccccc1)/CN1CCN(CCOC(c2ccccc2)c2ccccc2)CC1	53%
Cc1cc(C(F)(F)F)nn1CC(=O)Nc1cccnc1	-4%

Next section; the last four above are carried over.
SMILES	AmpC inh no det
O=C(O)C1CCCCC1C(=O)N1CC=C(c2ccccc2)CC1 (stereo unspecified)	-14%
CNCCCc1[nH]nc(N)c1C#N	9%
C(=C/c1ccccc1)/CN1CCN(CCOC(c2ccccc2)c2ccccc2)CC1	53%
Cc1cc(C(F)(F)F)nn1CC(=O)Nc1cccnc1	-4%
CC(C)OCCCNC(=O)Cn1nc(-c2ccccc2)ccc1=O	-3%
NC(=O)CCCCn1ccc(NC(N)=NCC(F)(F)F)n1	17%
CCSc1nnc(NC(=O)c2ccccc2)s1	-8%
COCCCn1c(SCC(=O)Nc2ccc(C(C)=O)cc2)nc2ccccc2c1=O	77%
CC1=[N+]([O-])C2(N)CCc3nonc3C2(O)C1 (stereo unspecified)	5%
CCOc1cc(N2CCOCC2)c(OCC)cc1NC1=NCCCCC1	2%
Cc1c(C(=O)OCc2ccccc2)nnn1-c1nonc1N	-9%
O=c1[nH]c(=O)n(C2CCCCCC2)c(O)c1C=NCc1ccc(F)cc1	-8%
CCO/C=N/c1c(C#N)c(CC#N)nn1-c1ccccc1	-2%
O=C(OC(C(=O)NCc1ccc2c(c1)OCO2)c1ccccc1F)c1ccco1 (stereo unspecified)	-17%
O=C(Nc1ccccc1)c1cccnc1Nc1ccccc1	2%
Clc1cccc(Nc2nnc(-c3ccccc3)c3ccccc23)c1	-1%
Cc1ccc(S(N)(=O)=O)cc1	-6%
Cc1noc(C)c1C(=O)OCC(=O)/C=C1\N(C)c2ccccc2C1(C)C	68%
CCOc1ccc(NS(=O)(=O)c2ccc3[nH]c(=O)oc3c2)cc1	-16%
CC(=O)c1ccc(NC(=O)CCc2c(C)nc3ncnn3c2C)cc1	-9%
Cc1nc2cnc(Oc3cccc(Cl)c3)nc2n(CCc2ccccc2)c1=O	12%
Clc1c(-c2nnc3n2CCCCC3)sc2ccccc12	38%
COc1ccc(-c2nc3cnc(N4CCNCC4)nc3n(-c3ccccc3)c2=O)cc1	59%
CCC(C)NC(=O)c1cnc2n(c1=O)CCS2 (stereo unspecified)	83%
CCCCNC(=O)c1cc(-c2ccc(F)cc2)on1	-9%
Cc1cc(C(=O)Nc2ccc(S(=O)(=O)N3CCCC3)cc2)cs1	-5%
CN1CCN(C(=O)c2cc3nc(-c4ccccc4)cc(C(F)(F)F)n3n2)CC1	44%
CCOC(=O)c1c(N)n(CCOC(=O)c2cccs2)c2nc3ccccc3nc12	33%
COCC(=O)NC(C)c1nc2ccccc2[nH]1 (stereo unspecified)	-12%
CCc1ccc(S(=O)(=O)NCc2cn3ccsc3n2)s1	-5%
COc1ccc(CCNC(=O)C(C)OC(=O)c2ccco2)cc1OC (stereo unspecified)	1%
CCCN(CCC)CCNC(=O)C1CCN(Cc2nc(-c3ccc(Cl)cc3)oc2C)CC1	49%
CC(C)C[C@@H](CC(=O)N[C@@H](CCCN)CC(=O)N[C@@H]1CCNC[C@H]1C(=O)N[C@H](CC(=O)N[C@@H](CCC(=O)O)CC(=O)O)Cc1c[nH]c2ccccc12)NC(=O)[C@@H]1CCCC[C@H]1N	144%
CCC(=O)Nc1cccc(C(=O)c2ccccc2)c1	-3%
O=C1CC(C(F)(F)C(F)(F)C(F)(F)C(F)F)=Nc2ccccc2N1	-23%
CCCCNC(=O)c1cn(C)c2ccc(S(=O)(=O)N3CCOCC3)cc2c1=O	48%
CCOC(=O)C1(C)NC(c2ccc(N(C)C)cc2)C2C(=O)N(CC)C(=O)C21 (stereo unspecified)	14%
O=C(c1ccccc1)N1CCCC(c2nc3c(nnn3Cc3ccccc3)c(=O)[nH]2)C1 (stereo unspecified)	35%
Brc1ccc(-c2nc(-c3ccncc3)no2)o1	-7%
O=c1cc(CSc2nnnn2-c2ccccc2)[nH]c2[nH]n(-c3ccccc3)c(=O)c12	-18%
CCCCCSc1nc2c(cnn2-c2ccccc2)c(=O)[nH]1	-13%
O=C(Nc1nc2c(s1)CCCC2)c1ccc(Br)o1	-8%
COC(=O)c1sc(=S)n(-c2ccccc2)c1N	11%
Cc1ncc([N+](=O)[O-])n1C[C@H](O)CCl	9%[12.8 µM]
COc1cccc(CC(=O)NCC2COc3ccccc3O2)c1OC (stereo unspecified)	17%
CC(Sc1cccc2cccc(C(=O)O)c12)C(=O)O (stereo unspecified)	-8%
O=c1c(-c2ccc(F)cc2)nc2cnc(N3CCOCC3)nc2n1-c1ccccc1	13%
CCn1c(Sc2ccc(N)cc2Cl)nc2ccccc21	2%
CCCCNC(=O)C(NS(=O)(=O)c1cccc2nsnc12)c1ccccc1 (stereo unspecified)	-8%
CCN(c1cccc(C)c1)S(=O)(=O)c1ccc2c(c1)CCN2C(C)=O	70%
CSCCC(NS(=O)(=O)c1ccc2c(c1)oc(=O)n2C)C(=O)NC1CCCCC1 (stereo unspecified)	-6%
Cn1c(=O)cc(OCCCC(=O)Nc2ccccn2)c2ccccc21	17%
CN(C)c1ccc(-c2ccc3ncnc(NC4CC4)c3c2)cc1	21%
CCC(=O)N(Cc1ccco1)c1nc(-c2ccccc2)cs1	4%
COc1ccccc1OCC(=O)OCC(=O)NCCN1C(=O)CSC1=O	5%
COCCn1c(SCC(=O)Nc2cccc(C)c2)nnc1C(C)C	38%
O=C1C2CCN(CC2)C1(CO)CO	8%[5.75 µM]
CCc1nc(N)c(C#N)c(-c2ccccc2OC)c1C	1%
COc1ccc(C2NC(=O)CS2)cc1OC (stereo unspecified)	-12%
Oc1ccc(Cc2cc(Cl)cc(Cl)c2O)cc1Cl	-15%[5.75 µM]
O=C(Nc1ccc(S(=O)(=O)Nc2ccc(Cl)cc2)cc1)C1CCCO1 (stereo unspecified)	2%
Cc1ccc(N=c2oc3cc(O)ccc3cc2C(N)=O)cc1	104%
Cc1ccc(N2CC(C(=O)Oc3cccc(N4C(=O)CCC4=O)c3)CC2=O)cc1 (stereo unspecified)	28%
COc1ccc(-c2nc(S(=O)(=O)c3ccc(C)cc3)c(N3CCCC3)o2)cc1	-4%

Quoted from the listing:
COc1ccccc1OCC(=O)OCC(=O)NCCN1C(=O)CSC1=O in AmpC inh no det reads 5%
CCc1nc(N)c(C#N)c(-c2ccccc2OC)c1C in AmpC inh no det reads 1%
O=C1C2CCN(CC2)C1(CO)CO in AmpC inh no det reads 8%[5.75 µM]
CN(C)c1ccc(-c2ccc3ncnc(NC4CC4)c3c2)cc1 in AmpC inh no det reads 21%
Cc1ccc(N2CC(C(=O)Oc3cccc(N4C(=O)CCC4=O)c3)CC2=O)cc1 (stereo unspecified) in AmpC inh no det reads 28%
Oc1ccc(Cc2cc(Cl)cc(Cl)c2O)cc1Cl in AmpC inh no det reads -15%[5.75 µM]

(continued)
SMILES	AmpC inh no det
Cn1c(SCc2ccccc2)nnc1-c1ccncc1	-7%
Cc1ccc(S(=O)(=O)O)cc1C	?
Cn1c(=O)[nH]c(=O)c2c1nc(NCc1ccccc1)n2CC(O)c1ccccc1 (stereo unspecified)	21%
O=C(CCNS(=O)(=O)c1cccc2nsnc12)Nc1ccc2c(c1)OCCO2	-13%
O=NC1=C(c2c(O)[nH]c3ccccc23)CCCC1	-6%
CCOc1ccc(OCC)c(NC(=O)CSc2nnc(-c3cccnc3)o2)c1	73%
Nc1nc(N)c(Cn2ccnc2)c(=O)[nH]1	-2%[5.75 µM]
CCNC(=O)NC(=O)CSc1ccc(NC(C)=O)cc1	4%
COc1cccc(NC(=O)Cn2c(=O)n(CCCC(=O)NCc3ccco3)c(=O)c3ccccc32)c1	26%
c1cncc(-c2ccc3ncnc(NCCN4CCOCC4)c3c2)c1	1%
CCC(=O)N1CCc2cc(S(=O)(=O)CCC(=O)Nc3ccc(C)c(F)c3)ccc21	3%
CC(=O)N1CCC2(CC1)C(C#N)=C(N)Oc1n[nH]c(CSc3ccc(C)cc3)c12	-13%
CC(C)(C)NC[C@H](O)c1ccc(O)c(CO)c1	4%
O=C(c1cc(C(F)(F)F)cc(C(F)(F)F)c1)N1CCC[C@@]2(CCN(c3ccncc3)C2)C1	22%
O=C1CC(c2cccs2)Sc2nc3ccccc3n21 (stereo unspecified)	-8%
Cn1ccnc1SCc1cc(=O)[nH]c2ccccc12	-9%
COc1ccccc1N1CCN(S(=O)(=O)c2ccc(Cl)s2)CC1	17%
CCOC(=O)c1sc(NC(NC(=O)c2ccco2)(C(=O)OC)C(F)(F)F)nc1C (stereo unspecified)	20%
O=C(CSc1ncc(-c2ccc(F)cc2)[nH]1)Nc1cccc(O)c1	-19%
O=C(Cc1cccs1)Nc1nnc(CCc2ccccc2)s1	-23%
N#Cc1c(/N=C/c2ccco2)sc2c1CCC2	-9%
Cc1ccc(CN(CC(=O)NCCc2ccccc2)C(=O)CCCC(=O)Nc2cc(C)on2)cc1	62%
CC(C)(C)c1ccc(SCC(N)=O)cc1	3%
CCOC(=O)CSc1nnc(CNc2ccc(Cl)cc2)n1-c1ccccc1	62%

An excerpt (hit frequency here may not be typical).
